Source: PubChem BioAssay
DUX4 inh = DUX4-mediated transcription inhibition. 293T-iDUX4 ZSCAN4-Gaussia luciferase reporter, 24 h; active compounds read low. activity change, negative = inhibition, % (test concentration not listed). 0.8% of 37,000 active. AID 1224904;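 active means -10% or lower and over 25 points stronger than a control reporter; inconclusive means -10% or lower with a smaller gap; inactive means above -10%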;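 further: 0% = median of neutral control wells and -100% = median of positive control wells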
DUX4 inh difference = further read-out of DUX4 inh, marked with its call; Gaussia minus Italica difference, %; measured here: selective DUX4 reporter inhibition;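 worked out from the two reporters; negative = selective loss of the DUX4 reporter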
DUX4 inh control = further read-out of DUX4 inh, marked with its call; activity change, negative = inhibition, %; measured here: Italica tet-on control reporter;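 0 = neutral control and -100 = positive control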
* = called active by the depositor; ? = inconclusive; . = not tested or not shown; ! = a repeat was not active.

#	canonical_smiles	DUX4 inh	DUX4 inh difference	DUX4 inh control
1	CCC(=O)N1CC[C@@H]2[C@H](CO)Nc3ccc(-c4ccc(F)cc4)cc3[C@@H]21	2	13	-12
2	CCC(=O)N1CC(=O)N2[C@H](CO)[C@@H](c3ccc(-c4ccc(C#N)cc4)cc3)[C@@H]2C1	?	.	.
3	COCC#Cc1ccc([C@H]2[C@@H](CO)N3CCCCN(C(=O)NC4CCCC4)C[C@H]23)cc1	6	16	-10
4	COc1ccccc1-c1ccc([C@H]2[C@@H](CO)N3CCCCN(C(=O)CN4CCOCC4)C[C@@H]23)cc1	9	10	-1.0
5	COc1cccc(C#Cc2cnc3c(c2)C(=O)N([C@H](C)CO)C[C@H](C)[C@H](CN(C)C(=O)C2CCCCC2)O3)c1	0	-1	0.7
6	Cc1ccc(S(=O)(=O)N2C[C@@H](O)COC[C@@H]3O[C@H](CC(=O)NCCN4CCCCC4)CC[C@H]32)cc1	6	1	4.6
7	O=S(=O)(NC[C@@H]1N[C@@H](CO)[C@H]1c1ccccc1)c1ccccc1	0	2	-1.7
8	CCCN1[C@@H]2Cn3c(cccc3=O)[C@H]1[C@@H](C(=O)N[C@@H](C)c1ccccc1)[C@@H]2CO	?	.	.
9	COc1cccc(NC(=O)N(C)C[C@H]2OCc3cn(nn3)CCCC(=O)N([C@@H](C)CO)C[C@@H]2C)c1	8	7	1.5
10	CCCNC(=O)N1CC2(CCN(Cc3cccc(OC)c3)CC2)c2c([nH]c3cc(OC)ccc23)[C@@H]1CO	?	.	.
11	CN1c2ccc(C#Cc3cccnc3)cc2[C@H]2[C@H](CCN2C(=O)c2cccnc2)[C@@H]1CO	-4	9	-14
12	COCC#Cc1ccc([C@H]2[C@H]3CN(C(=O)CN4CCOCC4)CC(=O)N3[C@H]2CO)cc1	9	5	4.1
13	CCCN1[C@@H]2c3ccc(C4=CCCC4)c(=O)n3C[C@@H]2[C@@H](CO)[C@@H]1C(=O)NCC	-5	-2	-2.6
14	O=C(NC[C@H]1[C@@H](c2ccccc2)[C@H](CO)N1Cc1cccnc1)c1ccccn1	-1	0	-0.5
15	Cc1ccccc1S(=O)(=O)N1C[C@@H](O)COC[C@H]2O[C@@H](CC(=O)N3CCCCC3)CC[C@@H]21	4	-8	12
16	COC(=O)C[C@H]1C[C@@H]2c3cc(NS(=O)(=O)c4cccc(OC)c4)ccc3O[C@@H]2[C@@H](CO)O1	0	-6	5.8
17	CO[C@H](CN(C)C(=O)c1cc(Cl)cc(Cl)c1)[C@@H](C)CN(C(=O)Nc1ccc(F)cc1)[C@H](C)CO	-4	-3	-0.3
18	COc1ccc2c3c([nH]c2c1)[C@@H](CO)N(C(=O)Nc1ccc(F)cc1)CC31CCN(C(=O)c2ccccc2F)CC1	?	.	.
19	CC=Cc1ccc2n(c1=O)C[C@@H]1[C@@H](CO)[C@H](C(=O)NCC(F)(F)F)[C@H]2N1C(=O)C1CC1 (mixture of isomers)	6	4	2.3
20	COc1ccc2c3c(n(C)c2c1)[C@@H](CO)N(CC1CC1)CC31CN(C(=O)c2ccc3c(c2)OCO3)C1	?	.	.
21	CCCN1C[C@@H](C)[C@H](OC)CN(C)C(=O)c2ccc(NS(C)(=O)=O)cc2OC[C@@H]1C	1	0	0.2
22	CN1c2ccc(Br)cc2[C@H]2[C@H](CCN2C(=O)CN2CCOCC2)[C@@H]1CO	16	11	5.3
23	CCCC(=O)N1CC2(C1)CN(C(=O)c1ccc(F)cc1)[C@@H](CO)c1[nH]c3cc(OC)ccc3c12	3	-6	9.5
24	COc1ccc2c3c(n(C)c2c1)[C@H](CO)NCC31CN(S(=O)(=O)c2cccc(F)c2)C1	5	5	-0.6
25	O=C(O)C[C@@H]1C[C@@H]2c3cc(NC(=O)Cc4ccncc4)ccc3O[C@@H]2[C@H](CO)O1	-1	-2	1.3
26	CCC(=O)N1[C@@H]2c3ccc(-c4ccccc4)c(=O)n3C[C@H]1[C@H](CO)[C@H]2C(=O)N1CCN(C)CC1	7	-2	9.2
27	OC[C@@H]1[C@H](c2ccc(Br)cc2)[C@H]2CNCCCCN12	19	8	11
28	C[C@@H]1CN([C@@H](C)CO)C(=O)CCCn2cc(nn2)CO[C@@H]1CN(C)S(=O)(=O)c1ccccc1F	1	2	-1.3
29	CN1C(=O)c2cc(NC(=O)c3cccc(F)c3)ccc2OC[C@@H]2O[C@@H](CC(=O)NCc3ccccc3Cl)CC[C@H]21	-1	-2	1.2
30	C[C@@H]1CN([C@@H](C)CO)C(=O)CCCn2cc(nn2)CO[C@@H]1CN(C)S(=O)(=O)c1ccc(-c2ccccc2)cc1	-2	6	-7.3
31	CN1C(=O)c2cc(NC(=O)c3cccc(F)c3)ccc2OC[C@@H]2O[C@@H](CC(=O)Nc3ccccc3)CC[C@H]21	0	-7	7.4
32	CO[C@@H]1CN(C)C(=O)c2ccc(NC(=O)Cc3ccccc3)cc2OC[C@H](C)N(C(C)=O)C[C@@H]1C	2	5	-3.2
33	Cc1ccccc1S(=O)(=O)N1[C@@H](C#N)[C@@H](c2ccccc2)[C@@H]1CO	2	-4	5.7
34	O=C(C[C@H]1C=C[C@@H](NC(=O)c2cccnc2)[C@H](CO)O1)NCCN1CCCCC1	-1	-11	9.8
35	COc1ccc2c3c(n(C)c2c1)[C@@H](CO)N(C(=O)c1ccncc1)CC31CCN(CC2CC2)CC1	17	3	15
36	Cc1noc(C)c1S(=O)(=O)Nc1ccc2c(c1)CC(=O)N([C@@H](C)CO)C[C@@H](C)[C@H](CN(C)C(=O)Nc1cccc3ccccc13)O2	-1	-2	0.9
37	CCNC(=O)[C@H]1[C@H](CO)[C@H]2Cn3c(ccc(-c4ccccc4)c3=O)[C@H]2N1C(=O)Cc1cccnc1	8	6	2.0
38	O=C(c1ccncc1)N1CCCCN2[C@@H](CO)[C@@H](c3ccc(-c4ccccc4)cc3)[C@@H]2C1	9	3	6.0
39	O=C(Cc1cccnc1)N1CC2(C1)[C@H](c1ccccc1)[C@@H](CO)N2C(=O)C1CCC1	7	-1	8.3
40	OC[C@H]1[C@H](c2ccc(-c3ccccc3F)cc2)[C@@H]2CN(Cc3ccncc3)CCCCN12	2	-13	14
41	CS(=O)(=O)Nc1ccc2c(c1)[C@@H]1C[C@H](CC(=O)NCCc3ccccc3)O[C@H](CO)[C@@H]1O2	6	5	0.4
42	COc1ccc(S(=O)(=O)Nc2ccc3c(c2)CC(=O)N([C@@H](C)CO)C[C@H](C)[C@@H](CN(C)C(=O)Nc2c(C)noc2C)O3)cc1	1	1	-0.3
43	O=C(C1CCC1)N1CCCCN2[C@@H](CO)[C@@H](c3ccc(-c4ccncc4)cc3)[C@@H]2C1	?	.	.
44	C[C@H](NC(=O)C[C@@H]1C=C[C@H](NC(=O)CN2CCOCC2)[C@@H](CO)O1)c1ccccc1	-4	-6	1.8
45	C[C@@H]1CCCCO[C@@H](CN(C)C(=O)Nc2ccc(F)cc2)[C@@H](C)CN([C@@H](C)CO)C(=O)c2cc(NC(=O)NC3CCCCC3)ccc2O1	7	5	2.3
46	COc1cccc(S(=O)(=O)Nc2ccc3c(c2)[C@H]2C[C@H](CC(=O)NCc4ccc(Cl)cc4)O[C@@H](CO)[C@H]2O3)c1	?	.	.
47	COc1cccc(NC(=O)N2[C@H](CNC(C)C)[C@H](c3ccccc3)[C@@H]2CO)c1	4	2	1.8
48	O=C(CN1CCOCC1)N1CC2(C1)[C@@H](c1ccccc1)[C@@H](CO)N2Cc1cccc(F)c1	7	-8	14
49	C(=C\c1ccc(C2[C@@H]3CN(Cc4cccnc4)C[C@H]2N3)cc1)/c1ccccc1 (stereo not given in full)	-45*!	-48*	2.8*
50	C[C@@H]1CN([C@H](C)CO)C(=O)c2ccccc2-c2ccccc2CO[C@@H]1CN(C)S(=O)(=O)c1ccc(C#N)cc1	24	21	3.4

Record cards (already shown). Order of values: DUX4 inh	DUX4 inh difference	DUX4 inh control
Record of COc1cccc(NC(=O)N2[C@H](CNC(C)C)[C@H](c3ccccc3)[C@@H]2CO)c1 = 4	2	1.8
Record of OC[C@H]1[C@H](c2ccc(-c3ccccc3F)cc2)[C@@H]2CN(Cc3ccncc3)CCCCN12 = 2	-13	14
Record of CS(=O)(=O)Nc1ccc2c(c1)[C@@H]1C[C@H](CC(=O)NCCc3ccccc3)O[C@H](CO)[C@@H]1O2 = 6	5	0.4
Record of O=C(CN1CCOCC1)N1CC2(C1)[C@@H](c1ccccc1)[C@@H](CO)N2Cc1cccc(F)c1 = 7	-8	14

(list continues)
#	canonical_smiles	DUX4 inh	DUX4 inh difference	DUX4 inh control
51	CCCNC(=O)C[C@H]1CC[C@@H]2[C@H](COC[C@@H](O)CN2C(=O)Nc2ccc(Cl)c(Cl)c2)O1	-1	-3	2.1
52	COc1ccccc1NC(=O)N(C)C[C@@H]1OCc2ccccc2-c2c(n(C)c3ccccc23)C(=O)N([C@H](C)CO)C[C@H]1C	2	-4	6.7
53	O=C(C[C@@H]1C[C@H]2c3cc(NC(=O)NC4CCCC4)ccc3O[C@H]2[C@@H](CO)O1)NCc1cccc(F)c1	2	-5	6.9
54	COc1ccc(CN(C)C[C@H]2OCCCC[C@H](C)Oc3ccc(NS(C)(=O)=O)cc3C(=O)N([C@@H](C)CO)C[C@@H]2C)cc1	2	2	0.8
55	COc1ccc2c3c(n(C)c2c1)[C@H](CO)N(C(=O)c1cnccn1)CC31CN(C(=O)c2ccncc2)C1	19	7	12
56	CS(=O)(=O)N1[C@@H]2c3ccc(-c4ccc(F)cc4)c(=O)n3C[C@@H]2[C@@H](CO)[C@@H]1C(=O)O	9	8	0.9
57	O=C(c1cccnc1)N1CC(=O)N2[C@H](CO)[C@@H](c3ccc(-c4ccccc4F)cc3)[C@@H]2C1	1	2	-0.8
58	O=C(C[C@@H]1C[C@H]2c3cc(NC(=O)Cc4ccncc4)ccc3O[C@H]2[C@@H](CO)O1)NCCN1CCCCC1	4	4	-0.1
59	C[C@H]1CN([C@@H](C)CO)C(=O)CCCn2nncc2CO[C@H]1CN(C)S(=O)(=O)c1ccc(Oc2ccccc2)nc1	2	9	-6.2
60	CNC[C@@H]1OCCCC[C@H](C)Oc2ccc(NS(=O)(=O)c3cn(C)cn3)cc2C(=O)N([C@@H](C)CO)C[C@@H]1C	7	4	2.4
61	N#C[C@H]1[C@H](c2ccc(-c3ccccc3F)cc2)[C@H](CO)N1C(=O)C1CC1	-3	-3	0.0
62	C[C@H]1CN([C@@H](C)CO)C(=O)c2cccc(NC(=O)c3nc4ccccc4s3)c2O[C@H]1CN(C)Cc1ccc(C(F)(F)F)cc1	-2	0	-1.5
63	C[C@@H]1CN([C@@H](C)CO)C(=O)c2cc(-c3ccc(F)cc3)cnc2O[C@H]1CN(C)S(C)(=O)=O	0	-4	3.5
64	COCCNC(=O)C[C@@H]1C[C@@H]2c3cc(NC(=O)c4ccc5c(c4)OCO5)ccc3O[C@@H]2[C@H](CO)O1	0	-4	4.0
65	COc1ccc2c3c([nH]c2c1)[C@H](CO)N(C(=O)NC(C)C)CC31CCN(C(=O)c2cccnc2)CC1	21	1	20
66	COC(=O)N(C)C[C@H]1OCc2cn(nn2)CCCC(=O)N([C@@H](C)CO)C[C@H]1C	-4	-1	-3.0
67	COc1ccc(-c2ccc([C@H]3[C@@H](C#N)N(C(=O)c4cccnc4)[C@@H]3CO)cc2)cc1	5	1	4.0
68	CCN(C[C@H]1N[C@H](CO)[C@H]1c1ccc(-c2ccccc2)cc1)C(=O)COC	-2	-1	-0.3
69	Cc1ccc(S(=O)(=O)Nc2ccc3c(c2)CC(=O)N([C@H](C)CO)C[C@@H](C)[C@H](CN(C)S(=O)(=O)c2ccccc2)O3)cc1	2	0	2.5
70	COCC(=O)Nc1ccc2c(c1)OC[C@@H](C)N(CCC(F)(F)F)C[C@@H](C)[C@H](OC)CN(C)C2=O	-3	-9	6.2
71	O=C(C[C@H]1C=C[C@@H](NC(=O)Cc2cccnc2)[C@H](CO)O1)NCc1ccc2c(c1)OCO2	12	6	5.4
72	C[C@H]1CN([C@@H](C)CO)C(=O)CCCn2nncc2CO[C@H]1CN(C)C(=O)Nc1cccc(F)c1	2	0	1.5
73	O=C(c1cnccn1)N1CC(=O)N2[C@@H](CO)[C@@H](c3ccc(C#CCc4ccccc4)cc3)[C@@H]2C1	?	.	.
74	C[C@@H]1CN([C@H](C)CO)S(=O)(=O)c2ccc(-c3ccc(C(=O)N(C)C)cc3)cc2O[C@@H]1CN(C)C(=O)Cc1ccccn1	-2	0	-1.3
75	COCC(=O)Nc1ccc2c(c1)[C@H]1C[C@@H](CC(=O)NCCc3ccccc3)O[C@@H](CO)[C@H]1O2	9	5	3.7

Some of these compounds in order of molar mass, smallest number first:
#	canonical_smiles	DUX4 inh	DUX4 inh difference	DUX4 inh control
66	COC(=O)N(C)C[C@H]1OCc2cn(nn2)CCCC(=O)N([C@@H](C)CO)C[C@H]1C	-4	-1	-3.0
56	CS(=O)(=O)N1[C@@H]2c3ccc(-c4ccc(F)cc4)c(=O)n3C[C@@H]2[C@@H](CO)[C@@H]1C(=O)O	9	8	0.9
60	CNC[C@@H]1OCCCC[C@H](C)Oc2ccc(NS(=O)(=O)c3cn(C)cn3)cc2C(=O)N([C@@H](C)CO)C[C@@H]1C	7	4	2.4

These rows are one share of the data. The share of hits here may be higher or lower than overall.
